LANA-nucl inh: inhibitors of KSHV LANA binding to nucleosomes. FITC-LANA1-23 / chicken nucleosome fluorescence polarization; active compounds read low. z-score (test concentration not listed). 51,000 compounds, 0.3% hits;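 active = both repeat wells score below -2 in polarization z-score versus plate sample wells, excluding overly bright wells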;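 also: 100 nL library stock added to about 30 µL; numbers are from one replicate; some results filed as inactive read as strong as hits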
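System – purified chicken nucleosomes with FITC-labelled LANA N-terminal peptide (1-23) · Amount – 240 nM purified chicken nucleosomes (480 nM peptide binding sites), final · Also added – 50 nM FITC-LANA1-23 probe · Medium – TEN-BT buffer, pH 7.5 · Incubation – compound with peptide–nucleosome mix 10–45 min at room temperature · Detection – fluorescence polarization, ex 480 nm, em 535 nm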
Ab BasE inh: BasE siderophore biosynthesis inhibition; purified BasE, fluorescence polarization binding displacement; inhibition, % (test concentration not listed); 84,000 compounds, 0.1% hits; AID 485350;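 active = both replicates above 25% with normal brightness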;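 also: 0% = negative plate control signal and 100% = positive plate control signal; stock transfer was 100 nL into about 30 µL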
The depositor's hits bear a star; · = no result given; & = joins results of further samples. Only part of the results is shown (hit frequency here may not be typical).

Molecule	LANA-nucl inh	Ab BasE inh
CCn1cc(C(=O)NC2CCCCC2)c(=O)c2cc(S(=O)(=O)N3CCCC3)ccc21	3.7	-3.6
Nc1ccc(N2CCOCC2)c(N)c1	2.5	37*
CCCn1c(C(=O)OCC)cc2sccc21	-0.39	-0.1
NC(N)=NS(=O)(=O)c1ccc(N=Cc2ccc3c(c2)OCO3)cc1	-0.11	2.1
CC1CCc2nc(NC(=O)NCCCN3CCOCC3)sc2C1 (stereo unspecified)	·	1.2
COC(=O)C(CC(=O)c1cccc(C)c1)c1ccc(Cl)cc1 (stereo unspecified)	0.037	·
O=C(Nc1nnc(-c2ccccc2Cl)o1)c1ccc(S(=O)(=O)N2CCCC2)cc1	-0.64	-1.7
O=c1[nH]c2c(s1)C(c1cccs1)C1C3CCC(C3)C1S2 (stereo unspecified)	-1.1	0.1
Nc1ccc(/C=C/C(=O)O)cc1	·	1.1
COc1ccc(-c2ccc3cnn(Cc4cccs4)c3n2)cc1	·	-2.1
O=C(Cn1c(C(=O)N(Cc2ccco2)CC2CCCO2)cc2sccc21)c1ccccc1 (stereo unspecified)	0.08	0.4
CCn1c(C)nc2cc(C(=O)Nc3nnc(-c4ccccc4Cl)s3)ccc21	0.2	1.2

An excerpt from above in order of molar mass, lowest first.
Molecule	LANA-nucl inh	Ab BasE inh
COC(=O)C(CC(=O)c1cccc(C)c1)c1ccc(Cl)cc1 (stereo unspecified)	0.037	·
COc1ccc(-c2ccc3cnn(Cc4cccs4)c3n2)cc1	·	-2.1
NC(N)=NS(=O)(=O)c1ccc(N=Cc2ccc3c(c2)OCO3)cc1	-0.11	2.1
CCn1c(C)nc2cc(C(=O)Nc3nnc(-c4ccccc4Cl)s3)ccc21	0.2	1.2
CCn1cc(C(=O)NC2CCCCC2)c(=O)c2cc(S(=O)(=O)N3CCCC3)ccc21	3.7	-3.6
O=C(Cn1c(C(=O)N(Cc2ccco2)CC2CCCO2)cc2sccc21)c1ccccc1 (stereo unspecified)	0.08	0.4

(list continues)
Molecule	LANA-nucl inh	Ab BasE inh
O=C(CNS(=O)(=O)c1ccccc1)N1CCN(c2ccccc2)CC1	-0.85	1.2
COc1ccc(-c2csc(NC(=O)C(C)C)n2)cc1	0.096	2.4
CC(=O)Nc1[nH]cc(C)c1C#N	-0.091	·
CCc1ccc(C(=O)CSc2nnc(-c3nn(Cc4ccccc4)c(=O)c4ccccc34)o2)cc1	·	1.6
CSC(N)=Nc1csc(C(F)(F)F)c1-c1ccccc1	·	2.6
O=C(C[n+]1ccccc1)Nc1c2c(nc3c1CCC3)CCCC2	·	-0.7
N#Cc1ccc(CSc2ccc3c(c2)OCCO3)cc1	·	1.3
COc1ccc(NC(=O)CC2CCCC2)c(S(=O)(=O)N2CCCCC2)c1	·	-1.2
O=C(OCC(=O)N1CCCC1)c1ccc(Cl)nc1	·	2.1
CSc1ccc(S(=O)(=O)Nc2ccc3c(c2)NC(=O)CC3)cc1	0.21	-0.1
O=C(Nc1ccccc1)C1=C(N2CCOCC2)/C(=C\c2cccnc2)CC1	·	1.3
CCCCN(C(C)=O)c1c(N)n(CCC)c(=O)[nH]c1=O	·	0.3

Next part
Molecule	LANA-nucl inh	Ab BasE inh
CC(NC(=O)CSc1nnc(COc2ccccc2)o1)c1ccccc1 (stereo unspecified)	0.1	-1.2
COC(=O)c1ccc(/C=[N+](/[O-])C2(C)CCCCC2=O)cc1 (stereo unspecified)	0.14	1.4
Cc1cc(C)c(S(=O)(=O)Nc2nnc(C(F)(F)F)s2)c(C)c1	0.13	5.1
COc1ccc(CN=C2SCC(=O)N2c2ccccc2)cc1Cl	0.27	·
CCN(C(=O)CCc1c(C)[nH]c(=O)c(C#N)c1C)c1nc2c(C)cccc2s1	·	1.1
O=c1c2c(-c3ccccc3)ccnc2[nH]n1-c1ccccc1	-0.13	1.2
C=CCN(C(=O)Cc1ccc(OC)cc1)c1nnc(-c2ccc(Cl)cc2)s1	·	3.4
O=C(N/N=C/Cc1ccccc1)c1ccccc1O	-0.95	3.8
CCN(CC)C(=O)Cn1c(=O)n(-c2ccc(F)cc2)c(=O)c2oc3ccccc3c21	-0.082	0.2
Cn1c(Sc2nnnn2-c2ccccc2)nnc1C(F)(F)F	·	-1.6
O=C(CCc1nc2ccccc2c(=O)[nH]1)OCc1ccccc1	·	-4.4
C1=Cc2ccccc2Nc2ccccc21	-0.027	1.9

The list continues.
Molecule	LANA-nucl inh	Ab BasE inh
O=C(Nc1ccccc1N1CCOCC1)C1CCN(c2nccc(C(F)(F)F)n2)CC1	0.01	2.2
O=c1[nH]c(=O)n(C2C[C@@H](O)[C@@H](CO)O2)cc1F (stereo partly specified)	-0.5&0.13	4.8
COc1ccc(CN2CCN(C(=O)c3c(C)nn(Cc4ccccc4)c3C)CC2)cc1F	·	1.2
CCC(=O)N=c1sc2cc(Br)ccc2n1CCOC	0.7	0.6
COc1cnn(-c2ccccc2)c(=O)c1OC	-0.9	1.0
CC(=O)Nc1ccc2c(CSc3nnc(-c4cccs4)n3CC3CCCO3)cc(=O)oc2c1 (stereo unspecified)	·	-1.5
CCOc1ccc2oc(=O)cc(CN3CCOCC3)c2c1	0.043	1.3
COc1ccc(-c2oc3ncn(Cc4ccco4)c(=N)c3c2-c2ccc(OC)cc2)cc1	0.17	0.4
CN(C)c1ccc(/C=C2\CCC(=C3SCCCS3)C2=O)cc1	·	-4.0
CC(C)CCOc1ccc(C(=O)C(CN2CCOCC2)c2ccccc2)cc1 (stereo unspecified)	·	1.5
O=c1[nH]c2cc(C(F)(F)F)ccc2n(CCNc2ncc(C(F)(F)F)cc2Cl)c1=O	-0.52	·
COc1ccc(NC(=O)CNc2ccc(NC(C)=O)cc2)c(OC)c1	·	-8.4

Further results:
Molecule	LANA-nucl inh	Ab BasE inh
C#C[C@]1(O)CC[C@H]2[C@@H]3CCC4=C(CCC(=O)C4)[C@H]3CC[C@@]21C	1.1	-0.9
O=C(N/N=C/c1ccc(N2CCOCC2)cc1)c1ccc(O)cc1	·	6.5
COc1ccc(CN(C)C(=O)c2ccccc2OC)cc1	0.14	0.2
CN1CCN(/N=C/c2ccc(Cl)cc2)CC1	-0.97	-0.6
O=C1CSC(=Nc2cccc(C(F)(F)F)c2)N1	1.2	-1.2
O=C(NCC1COc2ccccc2O1)C1COc2ccccc2O1 (stereo unspecified)	0.37	2.8
O=C(O)c1cccc(Nc2nc(Nc3ccccc3)nc(N3CCCC3)n2)c1	·	1.9
O=C1NC(C(=O)O)=CC(c2ccccc2)N1 (stereo unspecified)	0.56	-0.6
NNc1nncc2ccccc12	0.11&-0.42&0.43	0.2&2.9
Cc1ccc(N(C)NC=C(C#N)C#N)nn1	-1.5	5.3
Cc1cc(C)nc(NNC(=O)c2ccccc2)n1	0.32	-0.8
O=C(O)CCc1ccc(-c2ccccc2F)o1	·	6.5

Single records (already shown). Order of screens: LANA-nucl inh, Ab BasE inh
NNc1nncc2ccccc12 is entered as 0.11&-0.42&0.43, 0.2&2.9
O=C(Nc1ccccc1)C1=C(N2CCOCC2)/C(=C\c2cccnc2)CC1 is entered as ·, 1.3

New compounds follow.
Molecule	LANA-nucl inh	Ab BasE inh
CC1CC(C)CN(C(=O)CSc2nncn2-c2cccc(Cl)c2)C1 (stereo unspecified)	·	-0.5
COc1ccc(NC(=O)CCN2CCN(C3c4ccccc4-c4ccccc43)CC2)cc1	-0.29	-1.2
O=C(O)C1CCCN(C(=O)c2ccc(F)cc2)C1 (stereo unspecified)	·	12
CCOC(=O)COc1ccccc1C(=O)O	-0.16	-0.7
CCOC(=O)COc1cccc(Cl)c1	0.008	2.6
O=C(COC(=O)c1ccc2ccccc2n1)c1ccc2[nH]c(=O)[nH]c2c1	·	-1.5
Cn1c(/C(C#N)=C(\O)CN2C(=O)CCC2=O)nc2ccccc21	-0.16	1.3
COc1ccc(-c2oc(NC(=O)Cc3ccc(OC)c(OC)c3)c(C#N)c2-c2ccc(OC)cc2)cc1	1.3	-3.6
COc1ccccc1/C=C(\C#N)c1ccc(-n2cccc2)cc1	2.8	·
CCN1CCN(c2nc(-c3ccc(C(C)(C)C)cc3)nc3ccccc23)CC1	·	1.0
O=C(NCc1ccco1)c1ccc2c(=O)n(C3CCCCC3)c(SCc3cc(F)ccc3F)nc2c1	0.075	1.9
Cc1ccc2c(=O)cc(-c3cccc(F)c3)oc2c1	1.4	-3.1

(list continues)
Molecule	LANA-nucl inh	Ab BasE inh
CC(C)(C)NC(=O)Cc1csc2nc(-c3ccccc3)cn12	0.14	1.4
CC1(C)NN(CCO)C(=Nc2ccccc2)S1	·	-1.1
COC(=O)[C@@H]1CCN[C@@H]1c1c(Cl)cccc1Cl	0.61	-0.8
CC(CCc1ccccc1)NC(=O)c1ccco1 (stereo unspecified)	0.073	-1.2
CC(C(=O)C(C#N)c1nc2ccccc2n1C)N1C(=O)c2ccccc2C1=O (stereo unspecified)	·	1.0
CCOc1ccc2cc(-c3csc(N)n3)c(=O)oc2c1	·	1.9
CCc1nc2sc3c(NCCc4ccccc4)ncnc3c2c2c1CCCC2	·	0.2
Cc1nnc(Nc2ccc(S(N)(=O)=O)cc2)c2ccccc12	-0.14	-0.9
C=CCNC(=S)N1CCN(CCN=CC2=C(O)CC(c3ccccc3)CC2=O)CC1 (stereo unspecified)	0.15	-0.8
COC(=O)C1=CN(c2ccc(F)cc2)C=C(C(=O)OC)C1c1ccc(OC)c(O)c1	-0.51	1.2
CCC(C)N(C(=O)CSc1nc(NC)c2ccccc2n1)C1CCS(=O)(=O)C1 (stereo unspecified)	·	-0.8
CC(=O)NCc1nc(-c2ccccc2)no1	1.4	1.3

Further records.
Molecule	LANA-nucl inh	Ab BasE inh
COc1ccc(CNc2nc(-c3cccnc3)nn2C(=O)C2CC2)cc1OC	0.53	1.0
Cc1ccc2cc(CCNC(=O)C3CCCCC3)c(=O)[nH]c2c1	-0.63	-0.4
NC(=O)C1CCCN(CC(=O)N(Cc2cccs2)c2ccc3c(c2)OCCO3)C1 (stereo unspecified)	·	6.1
CN(CC(=O)Nc1ccccc1Cl)C1CCS(=O)(=O)C1 (stereo unspecified)	·	0.7
COc1ccc(C(c2nnnn2C2CCCC2)N2CCN(C(=O)c3ccco3)CC2)cc1OC (stereo unspecified)	-0.16	-0.6
O=c1c2ccccc2nnn1CSc1ccc(F)cc1	·	-2.0
COc1cc2ncc(-c3ccccc3)nc2cc1OC	0.29	-0.7
Cc1ccc(C(C)C)c(OCC(=O)NCCC23CC4CC(CC(C4)C2)C3)c1	·	-0.3
Cn1c(=NC(=O)C2CCCCN2S(=O)(=O)c2cccc3nsnc23)sc2ccccc21 (stereo unspecified)	·	-0.5
Nc1nc(COC(=O)c2ccc(S(=O)(=O)C(F)F)cc2)nc(Nc2ccccc2)n1	·	-0.8
COC(=O)c1ccc(NC(=O)/C(=C\c2ccco2)NC(=O)c2ccccc2OC)cc1	0.28	-1.5
Cc1nnc(NCCCN2CCOCC2)c2ccccc12	·	-1.5

New compounds follow.
Molecule	LANA-nucl inh	Ab BasE inh
CC(C)S(=O)(=O)c1csc(C(=O)OCC(=O)c2ccc(Cl)cc2)c1N	·	-1.3
CCOc1ccc(NC(C)C(=O)NC2(C#N)CCCCC2)cc1 (stereo unspecified)	·	1.3
Cc1ccc(N2CCC(=O)N2)cc1	0.2	2.5
COC(=O)C1CSCC/C1=N\Nc1ccc(Cl)cc1Cl (stereo unspecified)	-1.2	2.5
CCN1CCc2c(sc(NC(=O)c3ccc(S(=O)(=O)N4CCCC4)cc3)c2C(N)=O)C1	0.36	-16
CCOc1ccc(S(=O)(=O)N2CCN(C3CC(=O)N(Cc4ccccc4)C3=O)CC2)cc1 (stereo unspecified)	·	1.7
Cc1ccc2nc(NCCCNC(=O)c3cnccn3)c(C#N)cc2c1	0.92	-1.8
CN1CCN(c2nc(-c3ccc(O)cc3O)cs2)CC1	·	-8.1
Cc1ccc2c(c1)-c1c(cnn1CC(=O)NCC1CCCO1)CO2 (stereo unspecified)	0.095	1.9
CCC(CC)C(CC(=O)O)N1Cc2ccccc2C1=O (stereo unspecified)	-0.23	·
CCCCSc1nc2ccccc2[nH]1	-0.47	-0.2
CCOC(=O)c1cnn(C(=O)c2snnc2C)c1N	·	-0.3

Remaining list, next part.
Molecule	LANA-nucl inh	Ab BasE inh
Cc1ccc(CC2CC(=O)N(c3ccccn3)C2=O)cc1 (stereo unspecified)	0.89	-5.6
O=c1cc(CSCc2ccccc2)nc2sccn12	2	0.1
CCCCn1c(N)cc(=O)[nH]c1=O	·	2.4
O=C(Nc1cccs1)Nc1ccccc1N1CCCCC1	·	1.5
Cc1c(N)cc(C(F)(F)F)cc1C(F)(F)F	-0.51	2.7
CC1=NN(c2ncnc3sc4c(c23)CCCC4)C(=O)C1	·	0.4
CN(C)c1ccnc(NCc2ccccc2)c1C#N	0.088	-0.3
O=C(N/N=C1\CCc2ccccc21)c1ccc(O)cc1	·	5.6
CCC(=O)n1nc(-c2ccco2)nc1SCc1ccccc1	0.73	-2.0
Cc1ccc(NC(=O)COc2nc3nncn3nc2C)cc1	·	-0.5

Compound activity (PubChem BioAssay)
